Assay outcomes (PubChem BioAssay)
AF4-AF9 inh: blocks AF4 peptide binding to human AF9; 350,000 tested, 0.47% active; AlphaScreen, biotin-AF4 peptide binding to FLAG-AF9; inhibition, % at 10 µM;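 active = every replicate reaching a set inhibition limit, whatever the replicate mean, cut at about 25% in these data; inconclusive = mean inhibition reaches that limit but some replicates miss it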;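 also: 0% = plate neutral control median and 100% = total signal loss; the record names both 10 and 1 µM as test concentration; the first replicate is given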
Target sequence (P42568 whole entry, looked up): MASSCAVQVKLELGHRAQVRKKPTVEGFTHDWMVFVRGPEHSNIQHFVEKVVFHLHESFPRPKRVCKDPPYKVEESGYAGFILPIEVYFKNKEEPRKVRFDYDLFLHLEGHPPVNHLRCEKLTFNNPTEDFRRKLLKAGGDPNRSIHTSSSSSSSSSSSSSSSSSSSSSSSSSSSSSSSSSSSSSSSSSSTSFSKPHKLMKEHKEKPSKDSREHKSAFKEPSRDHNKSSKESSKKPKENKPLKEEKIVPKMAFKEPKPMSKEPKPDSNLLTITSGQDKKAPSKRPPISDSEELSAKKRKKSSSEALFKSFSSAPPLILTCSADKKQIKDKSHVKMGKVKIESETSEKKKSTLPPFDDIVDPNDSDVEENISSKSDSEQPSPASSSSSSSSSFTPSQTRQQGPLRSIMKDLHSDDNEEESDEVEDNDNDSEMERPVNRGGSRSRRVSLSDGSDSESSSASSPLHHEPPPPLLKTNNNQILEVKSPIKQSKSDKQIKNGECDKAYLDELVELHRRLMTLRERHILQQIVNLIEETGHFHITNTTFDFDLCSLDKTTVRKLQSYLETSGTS
FGF22 binding: binders of recombinant human FGF22 by thermal shift; Q9HCT0; SYPRO orange fluorescence; percent of sucrose octasulfate shift, DMSO zero; calls only at 9.99 µM; 340,000 tested, 1.5% active; AID 651658;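 active = melting point raised past a set limit in the mean and every replicate; inconclusive = no clear call; three in four hits are not shown here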
Target sequence (Q9HCT0 whole entry, looked up): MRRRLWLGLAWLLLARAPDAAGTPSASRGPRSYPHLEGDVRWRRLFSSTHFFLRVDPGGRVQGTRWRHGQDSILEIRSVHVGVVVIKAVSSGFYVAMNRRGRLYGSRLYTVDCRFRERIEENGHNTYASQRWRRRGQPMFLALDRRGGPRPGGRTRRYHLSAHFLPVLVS
Starred values were filed as active, the others as inactive; i = inactive; ? = inconclusive. The list is partial; count on the stated rates, not on these rows.

AF4-AF9 inh	FGF22 binding	SMILES
-15.4	i	COCC(=O)N1[C@@H]2c3ccc(C4=CCCCC4)c(=O)n3C[C@@H]2[C@@H](CO)[C@@H]1C(=O)N1CCOCC1
-0.1	i	OC[C@@H]1[C@@H](c2ccc(-c3ccccc3F)cc2)[C@@H]2CN(Cc3cncnc3)CCCCN12
1.7	i	C[C@H]1CCCCO[C@H](CN(C)S(=O)(=O)c2ccc(Cl)cc2)[C@@H](C)CN([C@@H](C)CO)C(=O)c2cc(NS(=O)(=O)c3ccccc3)ccc2O1
-1.4	i	Cc1ccc(S(=O)(=O)Nc2ccc3c(c2)CC(=O)N([C@H](C)CO)C[C@H](C)[C@@H](CN(C)C(=O)Nc2ccc(F)cc2)O3)cc1
-0.8	i	COc1ccc(NC(=O)Nc2ccc3c(c2)CC(=O)N([C@H](C)CO)C[C@@H](C)[C@H](CN(C)Cc2ccc(-c4ccccc4)cc2)O3)cc1
0.8	i	C[C@@H]1CN([C@H](C)CO)C(=O)c2cc(NC(=O)Cn3cnnn3)ccc2O[C@H]1CN(C)Cc1ccc2c(c1)OCO2
-0.9	i	O=C([C@@H]1[C@@H](CO)[C@@H]2Cn3c(ccc(C4=CCCC4)c3=O)[C@H]1N2C(=O)c1cccnc1)N1CCOCC1
4.9	i	O=C(C[C@H]1CC[C@@H]2[C@H](COC[C@H](O)CN2S(=O)(=O)c2ccc(Oc3ccccc3)cc2)O1)Nc1ccccc1
-7.9	i	CNC[C@@H]1Oc2ncc(C#CC3CCCC3)cc2C(=O)N([C@@H](C)CO)C[C@@H]1C
-1.8	i	O=C(C[C@H]1CC[C@@H]2[C@H](COC[C@H](O)CN2C(=O)c2ccc3c(c2)OCO3)O1)NCCN1CCCCC1
-5.0	i	CCS(=O)(=O)N1CCCCN2[C@@H](CO)[C@H](c3ccc(C#CC(C)(C)O)cc3)[C@@H]2C1
6.3	i	C[C@H](CO)N1C[C@H](C)[C@@H](CN(C)Cc2ccc(Cl)c(Cl)c2)Oc2ccc(NC(=O)CCCN(C)C)cc2C1=O
-7.1	i	O=C(C[C@H]1C[C@H]2c3cc(NC(=O)NC4CCCCC4)ccc3O[C@H]2[C@@H](CO)O1)NC1CCCCC1
12.9	i	C[C@H]1CN([C@@H](C)CO)C(=O)c2cc(C#Cc3ccccc3F)cnc2O[C@@H]1CN(C)C
-7.5	i	O=C(NCCc1ccncc1)[C@H]1[C@H](CO)[C@H]2Cn3c(ccc(-c4ccncc4)c3=O)[C@H]2N1C(=O)C1CC1
-2.3	i	O=C(C[C@H]1C=C[C@@H](NC(=O)C2CCOCC2)[C@@H](CO)O1)NCC1CC1
-2.8	i	C[C@@H]1CN([C@@H](C)CO)C(=O)Cc2cc(NC(=O)CCC(F)(F)F)ccc2O[C@@H]1CN(C)C(=O)Nc1ccc2c(c1)OCO2
19.1	i	C[C@@H]1CCCCO[C@H](CN(C)Cc2ccc3c(c2)OCO3)[C@@H](C)CN([C@@H](C)CO)C(=O)c2cc(NC(=O)Nc3ccc(F)cc3)ccc2O1
0.4	i	COc1ccc(NC(=O)Nc2ccc3c(c2)C(=O)N([C@@H](C)CO)C[C@H](C)[C@H](CN(C)C(=O)NC2CCCCC2)OCCCC[C@H](C)O3)cc1
-0.4	i	O=C(NCC[C@H]1CC[C@H](NS(=O)(=O)Cc2ccccc2)[C@@H](CO)O1)C1CCCC1
4.5	i	Cc1noc(C)c1S(=O)(=O)Nc1ccc2c(c1)CC(=O)N([C@H](C)CO)C[C@@H](C)[C@H](CN(C)Cc1ccc(-c3ccccc3)cc1)O2
7.1	i	COc1ccccc1CCn1cnc(-c2ccc(Cl)cc2)c1CC(C)C
-10.1	i	C[C@@H]1CCCCO[C@@H](CN(C)S(=O)(=O)c2ccc(Cl)cc2)[C@H](C)CN([C@@H](C)CO)C(=O)c2cc(NC(=O)CCC(F)(F)F)ccc2O1
5.8	i	Cc1ccc(-c2ccc([C@H]3[C@@H](CO)N4CCCCN(C(=O)Nc5cccc(F)c5)C[C@H]34)cc2)cc1
-6.2	i	COc1cccc(S(=O)(=O)Nc2ccc3c(c2)[C@@H]2C[C@H](CC(=O)NC4CCCCC4)O[C@H](CO)[C@@H]2O3)c1
-3.1	i	Cc1ccc(S(=O)(=O)Nc2ccc3c(c2)CC(=O)N([C@@H](C)CO)C[C@H](C)[C@H](CN(C)C(=O)Nc2cccc4ccccc24)O3)cc1
0.2	i	C[C@H](CO)N1C[C@H](C)[C@H](CN(C)CC2CCCCC2)Oc2ccc(NC(=O)CCN3CCOCC3)cc2C1=O
6.9	i	C[C@@H]1CN([C@@H](C)CO)C(=O)c2cccc(N(C)C)c2O[C@@H]1CN(C)Cc1ccc(-c2ccccc2)cc1
-17.9	i	C[C@H](NC(=O)[C@H]1[C@H](CO)[C@H]2Cn3c(cccc3=O)[C@H]2N1S(C)(=O)=O)c1ccccc1
?	i	C[C@H](CO)N1C[C@H](C)[C@@H](CN(C)Cc2ccc(-c3ccccc3)cc2)Oc2ccc(NC(=O)CCCN(C)C)cc2CC1=O
20.8	i	COc1ccc2c3c(n(C)c2c1)[C@H](CO)NCC31CCN(C(=O)Nc2ccccc2F)CC1
-2.8	i	O=C(C[C@H]1CC[C@@H](NS(=O)(=O)c2ccc(F)cc2)[C@@H](CO)O1)N1CCC(Cc2ccccc2)CC1
-3.0	i	O=C(C[C@H]1CC[C@H]2[C@@H](COC[C@@H](O)CN2S(=O)(=O)c2cccc(Cl)c2)O1)N1CCCCC1
3.2	i	O=C(NC[C@H]1[C@@H](c2ccccc2)[C@H](CO)N1CC1CC1)c1cccnc1
4.0	i	C[C@H]1CCCCO[C@@H](CN(C)C(=O)Nc2ccc(F)cc2)[C@@H](C)CN([C@@H](C)CO)C(=O)c2cc(NS(=O)(=O)c3ccccc3)ccc2O1
-0.2	i	C[C@@H]1CN([C@H](C)CO)C(=O)c2cc(NS(=O)(=O)c3ccc(Cl)cc3)ccc2O[C@H]1CN(C)C(=O)Nc1cccc2ccccc12
-6.4	i	Cc1cccc(N2CCN(C(=O)c3ccc4c(=O)[nH]c5c(C(=O)NC6CCCC6)sc(=S)n5c4c3)CC2)c1C
-0.7	i	CO[C@H]1CN(C)C(=O)c2cc(NC(=O)C3CC3)ccc2OC[C@@H](C)N(Cc2cncnc2)C[C@H]1C
-0.9	i	C[C@H]1CCCCO[C@@H](CN(C)C(=O)Nc2ccc(C(F)(F)F)cc2)[C@@H](C)CN([C@@H](C)CO)C(=O)c2cc(NS(C)(=O)=O)ccc2O1
0.4	i	CN1C(=O)c2cc(NC(=O)C3CCCC3)ccc2OC[C@H]2O[C@@H](CC(=O)NCC(F)(F)F)CC[C@@H]21
0.3	i	O=C(C[C@@H]1C[C@@H]2c3cc(NS(=O)(=O)c4ccc(F)cc4)ccc3O[C@@H]2[C@@H](CO)O1)NCc1ccccc1
-2.1	i	CCCNC(=O)C[C@H]1CC[C@H]2[C@@H](COC[C@@H](O)CN2C(=O)Nc2c(C)noc2C)O1
-0.8	i	C[C@H](CO)N1C[C@H](C)[C@H](CN(C)C(=O)C2CCCCC2)Oc2ncc(C#CCc3ccccc3)cc2C1=O
-1.8	i	C[C@@H]1CN([C@@H](C)CO)C(=O)c2cc(NC(=O)Nc3cccc4ccccc34)ccc2O[C@@H]1CN(C)C(=O)Nc1cccc2ccccc12
5.0	i	O=C(c1cccnc1)N1C[C@H]2[C@@H](c3ccccc31)[C@H](CO)N2C(=O)C1CCOCC1
4.0	i	C[C@@H]1CN([C@@H](C)CO)C(=O)c2cc(C3=CCCCC3)cnc2O[C@H]1CN(C)Cc1ccccc1
-1.8	i	COc1ccccc1NC(=O)N[C@H]1CC[C@H](CC(=O)N[C@@H](C)c2ccccc2)O[C@@H]1CO
1.3	i	CN(C)CCCNC(=O)C[C@@H]1CC[C@H]2[C@@H](COC[C@H](O)CN2Cc2cccc(Cl)c2)O1
0.8	i	C[C@H]1CCCCO[C@H](CN(C)Cc2ccc(C(F)(F)F)cc2)[C@@H](C)CN([C@@H](C)CO)C(=O)c2cc(NS(=O)(=O)c3cn(C)cn3)ccc2O1
-15.4	i	CCNC(=O)[C@H]1[C@H](CO)[C@H]2Cn3c(ccc(/C=C/c4ccccc4)c3=O)[C@@H]1N2C(=O)C1CCC1
3.5	i	C[C@H]1CCCCO[C@H](CN(C)C(=O)Nc2ccccc2)[C@@H](C)CN([C@@H](C)CO)C(=O)c2cc(NC(=O)C3CCCCC3)ccc2O1

Given with values under each structure: entries from further up.
The line under a structure holds: AF4-AF9 inh, FGF22 binding
COc1ccccc1NC(=O)N[C@H]1CC[C@H](CC(=O)N[C@@H](C)c2ccccc2)O[C@@H]1CO
 : -1.8, i
O=C(C[C@@H]1C[C@@H]2c3cc(NS(=O)(=O)c4ccc(F)cc4)ccc3O[C@@H]2[C@@H](CO)O1)NCc1ccccc1
 : 0.3, i

Compound profiles, from the list above. Screens in order: AF4-AF9 inh | FGF22 binding
C[C@@H]1CN([C@@H](C)CO)C(=O)c2cc(C3=CCCCC3)cnc2O[C@H]1CN(C)Cc1ccccc1 as listed: 4.0 | i
O=C(c1cccnc1)N1C[C@H]2[C@@H](c3ccccc31)[C@H](CO)N2C(=O)C1CCOCC1 as listed: 5.0 | i
COc1ccccc1NC(=O)N[C@H]1CC[C@H](CC(=O)N[C@@H](C)c2ccccc2)O[C@@H]1CO as listed: -1.8 | i
CCCNC(=O)C[C@H]1CC[C@H]2[C@@H](COC[C@@H](O)CN2C(=O)Nc2c(C)noc2C)O1 as listed: -2.1 | i
C[C@@H]1CN([C@@H](C)CO)C(=O)c2cc(NC(=O)Nc3cccc4ccccc34)ccc2O[C@@H]1CN(C)C(=O)Nc1cccc2ccccc12 as listed: -1.8 | i
